Mtb growth – Mycobacterium tuberculosis H37Rv growth inhibition, cell based, confirmatory dose response (AID 1949); M. tuberculosis H37Rv growth inhibition; most inactive calls were filed without a number and no value below 0 was filed; one-dose inhibition, % at 10 µg/mL; IC50 in µg/mL for titrated hits; 100,000 compounds, 1.6% hits;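 active = confirmed in a dose series; inconclusive = about 50% or more but not retested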;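 also: bacteria grown 7 days with compound before Alamar blue readout; 0% = untreated bacteria and 100% = reference antibiotic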
An asterisk follows results filed as active; i = inactive; ? = inconclusive. This is a subset; rates above refer to the full screens.

smiles,Mtb growth
CCOc1cc(C2C3=C(CCCC3=O)N(C)C3=C2C(=O)CCC3)ccc1OC,4.0%
O=C1NC(c2ccccc2)=C(c2ccc3ccccc3n2)C(c2ccncc2)N1 (stereo not drawn),0.5%
Nc1ccc2c(c1)OC1(CCCC1)O2,i
COc1ccc(C(=O)Nc2ccccc2C(=O)NC2CCCCC2)cc1,i
CC(C)c1ccc(C(=O)Nc2sc3c(c2C(N)=O)CCCCC3)cc1,i
Cc1ccc(S(=O)(=O)C(C)C(=O)c2ccc3c(c2)OCCO3)cc1 (stereo not drawn),4.1%
COc1cc(S(=O)(=O)NC2CCCCC2C)ccc1F (stereo not drawn),i
COc1cc(CN2CCN(Cc3cccc(Cl)c3)CC2)cc(OC)c1OC,i
CC(=O)Oc1cccc2ccc(/C=C/c3ccc(-c4ccc([N+](=O)[O-])cc4)o3)nc12,1.7%
Cc1cc(C)nc(NCc2ccc(Cl)cc2)n1,i
CC(=O)c1ccc(COc2ccccc2C(C)=O)cc1,8.7%
COC(=O)C1(C(=O)OC)C(/C=C/c2ccc(OC)cc2)C1(C)C(=O)c1ccc(C)cc1 (stereo not drawn),i
N#C/C(=C/c1cccc([N+](=O)[O-])c1)c1ccc(C#N)cc1,i
COc1cc(C2C(C(N)=O)=C(C)Nc3ncnn32)ccc1OCc1ccccc1 (stereo not drawn),1.0%
CC(=O)Nc1ccc([N+](=O)[O-])cc1Cl,i
CCOC(=O)c1ccc(NC(=O)Nc2ccsc2C(=O)OC)cc1,i
O=C(O)C(Cc1c[nH]c2ccccc12)N1C(=O)C2C3c4ccccc4C(c4ccccc43)C2C1=O (stereo not drawn),i
COc1cc2c(cc1NC(=O)CCc1ccccc1)oc1ccccc12,i
CCOc1cc(CO)cc(Br)c1OCC(=O)Nc1ccc(C)c(Cl)c1,2.5%
CC(=O)c1ccc(NC(=O)C2CC2)cc1,1.3%
Cc1cc(Cl)c(S(=O)(=O)N2CCCC2)cc1OCC(N)=O,i
CCOc1ccc2nc(SCc3ccccc3Cl)[nH]c2c1,i
CC(=O)c1cccc(NC(=O)COc2cccc(C)c2)c1,39.6%
CCN1CCN(C(=O)c2cc(-c3ccc(C)s3)nc3ccccc23)CC1,i
CCc1ccccc1NC(=O)CSc1nnc(COc2ccc(C)cc2)n1CC,1.1%
O=C(Oc1ccc(Br)cc1C(=S)N1CCCC1)c1ccccc1[N+](=O)[O-],i
O=C(Cc1c(F)cccc1Cl)Nc1ccc(C(=O)N2CCCC2)cc1,i
COc1cc2c(cc1C1NC(=S)NC(C)=C1C(N)=O)CCCC2 (stereo not drawn),i
Cc1ccc(N(CC(=O)N2CCN(c3cccc(Cl)c3)CC2)S(C)(=O)=O)c(C)c1,i
Cc1ccc(-c2cc3ccccn3c2C(=O)CSc2nnc(C)s2)cc1,i

Structures from the list above that contain an aryl thioether with sulfur outside any ring (three):
smiles,Mtb growth
CCOc1ccc2nc(SCc3ccccc3Cl)[nH]c2c1,i
CCc1ccccc1NC(=O)CSc1nnc(COc2ccc(C)cc2)n1CC,1.1%
Cc1ccc(-c2cc3ccccn3c2C(=O)CSc2nnc(C)s2)cc1,i

Random excerpt: four compounds from above.
smiles,Mtb growth
Cc1ccc(S(=O)(=O)C(C)C(=O)c2ccc3c(c2)OCCO3)cc1 (stereo not drawn),4.1%
CCc1ccccc1NC(=O)CSc1nnc(COc2ccc(C)cc2)n1CC,1.1%
Cc1cc(C)nc(NCc2ccc(Cl)cc2)n1,i
COc1cc(C2C(C(N)=O)=C(C)Nc3ncnn32)ccc1OCc1ccccc1 (stereo not drawn),1.0%

Continuation:
smiles,Mtb growth
COc1ccc(C)cc1NC(=S)Nc1ccc(Br)cn1,i
O=C(c1ccc(C(=O)N2CCc3ccccc32)s1)N1CCc2ccccc21,i
CC(=O)c1cc(C#N)c(SCC(=O)Nc2ccc(C(N)=O)cc2)nc1C,i
Cc1ccccc1N(CC(=O)N1CCCC1)S(C)(=O)=O,1.0%
CCN(CC)S(=O)(=O)c1cc(OC)c(Cl)cc1Cl,i
COc1ccc(C(=O)N2CC3(C)CC2CC(C)(C)C3)cc1 (stereo not drawn),i
CSc1cccc(NC(=O)CN(c2ccccc2)S(=O)(=O)c2ccc(Cl)cc2)c1,i
C#CC(CC)(CC)NC(=O)c1c(C)noc1C,i
CCC(CC)C(=O)N(CC)Cc1ccccc1,i
COC(=O)c1c(NC(=O)c2ccoc2C)sc(C)c1C,i
COn1c(C)c(C)c2c3no[n+]([O-])c3ccc21,i
CCOc1ccccc1OCCCCOc1cccc2ccc(C)nc12,i
CCOc1ccccc1OCC(=O)NC1CCCCC1,i
O=C(CSc1nnc(-c2ccncc2)n1-c1ccccc1)c1ccc(Br)cc1,i
O=C(NCc1cccnc1)C(=O)N1CCCC1,i
CCCn1nnc(NC(=O)c2ccccc2Cl)n1,i
COc1ccccc1N(CC(=O)Nc1ccccc1C(=O)NCC(C)C)S(C)(=O)=O,0.1%
CCOC(=O)C1=C(C)N(CC)C(=O)NC1c1cccc(Br)c1 (stereo not drawn),0.7%
Cc1ccc(-c2nn(CCC(=O)N3CCC(Cc4ccccc4)CC3)c(=O)c3ccccc23)cc1,?
CC(C)C(=O)Nc1ccc(C(=O)Nc2nccs2)cc1,0.2%
COC(=O)c1cc(OC)c(OC)cc1NC(=O)c1ccc(C)c([N+](=O)[O-])c1,i
CN(C)c1ccc2c3c(cccc13)C(=O)N(Cc1ccccc1)C2=O,2.4%
CCc1ccc(CN2CCN(C(=O)c3cccc(F)c3)CC2)cc1,i
Clc1ccccc1-c1ccc(-c2nn3c(-c4ccccc4)nnc3s2)o1,i
Cc1oc2ccc(OCc3ccccc3)cc2c1C(=O)O,21.6%
Cc1ccc2cccc(OCCCCOc3ccc(F)cc3)c2n1,7.7%
Cc1nc2cc(NC(=O)NCc3ccco3)ccc2n1C,i
CSc1cccc(NC(=O)CSc2nnc(C(C)NC(=O)c3ccccc3Br)n2C)c1 (stereo not drawn),i
COc1ccc(Cl)cc1N(CC(=O)Nc1cccc(SC)c1)S(C)(=O)=O,i
COc1ccc(S(=O)(=O)NCc2ccco2)cc1Br,i
COc1ccc(C(=S)N2CCN(C(c3ccccc3)c3ccccc3)CC2)c(OC)c1,i
Clc1ccc(OCc2nc3ccccc3s2)cc1,0.1%
CCC(=O)NC(=S)Nc1ccc(NC(=O)c2ccco2)c(Cl)c1,i
CC(=O)Nc1nnc(SCC(=O)N2CCCC2)s1,i
CCOC(=O)C1=C(C)N=c2s/c(=C\c3cccs3)c(=O)n2C1c1ccc(OCC)cc1 (stereo not drawn),i
O=C1C(=O)N(CC(=O)N2CCCCC2)c2ccccc21,i
O=C(CC1Sc2ccccc2NC1=O)Nc1cccc(C(F)(F)F)c1 (stereo not drawn),i
Cc1cc(C(=O)O)ccc1NC(=O)CNC(=O)C1CCCCC1,i
Cc1cc(C)c(S(=O)(=O)n2nnc3ccccc32)cc1C,i
COc1ccc(Cl)cc1NC(=O)c1c(-c2ccccc2Cl)noc1C,8.0%
COC(=O)C(C)Oc1ccc2c(-c3cccc([N+](=O)[O-])c3)cc(=O)oc2c1 (stereo not drawn),?
NS(=O)(=O)c1ccc(S(=O)(=O)NC2CCCC2)cc1,i
CCc1cccc(C)c1NC(=O)CSc1nnc(Cc2ccc(OC)cc2)n1CC,i
COc1ccc(-c2noc(CSc3ccc(C)cc3)n2)cc1,0.9%
COC(=O)c1ccc(NC(=O)CSc2nnc(-c3ccccc3)n2-c2ccccc2)cc1,i
COc1ccc(NC(=S)Nc2ccc(OCc3ccccc3)cc2)cc1OC,i
O=C(O)COc1ccc(NC(=O)c2ccco2)cc1,i
O=C(CCc1ccccc1)Nc1ccc(NC(=O)c2ccco2)cc1,i
CC(=O)Nc1nnc(CCS(=O)(=O)c2ccc(Cl)cc2)s1,i
CCOc1ccc(OCCCCNCCO)cc1,i
COc1cccc(N2CCN(C(=S)Nc3ccc(Cl)cc3C)CC2)c1,i
Cc1ccc(/C=C/C(=O)O)cc1S(=O)(=O)N1CCCc2ccccc21,0.5%
COc1ccccc1CNC(=O)CN(c1ccc(Br)cc1)S(=O)(=O)c1ccccc1,i
C=C(C)c1cccc(C(C)(C)NC(=O)N2CCN(CC)CC2)c1,i
C=CCn1c(SCC(=O)c2ccc(OC)cc2)nc2ccccc2c1=O,i
Cc1cc(C)cc(OCC(=O)NC2CCCCCC2)c1,4.0%
O=C1C2C3c4ccccc4C(c4ccccc43)C2C(=O)N1c1ccccc1[N+](=O)[O-] (stereo not drawn),i
CCC(=O)N1CCN(c2ccccc2NC(=S)NC(C)=O)CC1,i
CN1C(=O)C(O)(CC(=O)c2ccc3ccccc3c2O)c2ccccc21 (stereo not drawn),i
O=S(=O)(c1cc(Cl)ccc1Cl)N1CCN(c2ccc(F)cc2)CC1,11.4%

By substructure, the entries above with an NH in an aromatic ring
smiles,Mtb growth
O=C(O)C(Cc1c[nH]c2ccccc12)N1C(=O)C2C3c4ccccc4C(c4ccccc43)C2C1=O (stereo not drawn),i
CCOc1ccc2nc(SCc3ccccc3Cl)[nH]c2c1,i

Next section:
smiles,Mtb growth
Cc1ccc2c(c1)CCCN2S(=O)(=O)c1ccc(C)c(C(N)=O)c1,1.7%
Cc1cc(C)nc(NS(=O)(=O)c2ccc(Nc3nc(C)c(C(=O)Nc4ccccc4)s3)cc2)n1,i
COc1ccc(Cc2nnc(SCC(=O)Nc3cc(OC)ccc3OC)n2-c2ccccc2)cc1,i
COc1cc(NC(=O)C(=O)NNC(=O)C2CCCCC2)c(OC)cc1Cl,i
CN1C(=O)C(=Cc2cccn2-c2ccccc2)C(=O)N(C)C1=O,i
COc1ccc(/C=C2\SC(=O)N(c3ccc(Cl)cc3)C2=O)cc1O,i
CC(C(=O)Nc1ccccc1-c1ccccc1)N(c1ccc(Oc2ccccc2)cc1)S(C)(=O)=O (stereo not drawn),i
CCOc1ccc(-c2nc(N(C(=O)CC)c3cccc(C)c3)sc2C)cc1,i
CCOc1ccccc1NC(=O)c1cc([N+](=O)[O-])ccc1N1CCN(Cc2ccccc2)CC1,i
CCCCC(=O)Nc1ccc(C(=O)Nc2nnc(CCc3ccccc3)s2)cc1,1.0%
O=C(CCSc1c(Cl)cccc1[N+](=O)[O-])N1CCOCC1,i
O=C(Nc1ccccc1Cl)c1ccc(N2C(=O)c3ccccc3C2=O)cc1,2.3%
COC(=O)Nc1nc(-c2cc(Cl)ccc2Cl)cs1,i
Cc1cc(-c2ccccc2)nc(SCC(=O)Nc2cccc(C(F)(F)F)c2)n1,i
Cc1c(Br)ccc(NC(=O)c2ccc(F)cc2)c1C,i
COc1ccc(CCNC(=O)CCSc2nc(-c3ccco3)cc(C(F)(F)F)n2)cc1OC,6.6%
O=C(c1c(F)cccc1F)N1CCN(c2ccc(Cl)c(Cl)c2)CC1,i
COc1ccc(Cl)cc1NC(=S)NNC(=O)C1(C)CC1(Cl)Cl (stereo not drawn),i
Cn1c(=O)c2c(nc(SCc3cccc([N+](=O)[O-])c3)n2C)n(C)c1=O,i
COCCCn1c(-c2ccc(Br)cc2)nc(=S)c2c1CCCC2,i
CCN(CC)C(=O)C(=O)Nc1cccc(Cl)c1Cl,i
COc1ccccc1N(C(=O)c1ccccc1)C1CN2CCC1CC2 (stereo not drawn),i
CCOC(=O)c1c(NC(=O)COC)sc(C)c1C,?
O=c1c2ccccc2nc(CSc2nnnn2C2CCCCC2)n1-c1cccc(C(F)(F)F)c1,20.7%
O=C(NC1CCCCC1)N1CCN(C/C=C/c2ccccc2)CC1,i
O=C(NCc1ccccc1)c1ccc(C(=O)NCc2ccccc2)nc1,i
Cn1c(SCC(=O)Nc2ccc(Cl)c(C(F)(F)F)c2)nnc1-c1ccccc1,i
COc1cc(NC(=O)c2ccccc2)c(OC)cc1NC(=O)Cc1ccc(C)cc1,37.8%
CCOC(=O)NC(C(C(C)=O)C(=O)OCC)(C(F)(F)F)C(F)(F)F (stereo not drawn),i
CC(C)c1ccc(NCc2nc(-c3ccccc3)no2)cc1,i
CCc1ccc(OCC(=O)Nc2ccccc2C(N)=O)c(Br)c1,i
CCn1nc(C)c(NC(=O)c2cnn3c(C(F)F)cc(-c4ccc(OC)cc4)nc23)c1C,17.4%
Cc1ccc(-c2nc3ncccc3o2)cc1NC(=S)NC(=O)COc1ccc(C(C)C)cc1,i
Cc1ccc(-c2cc(C(F)F)n3ncc(C(=O)N4CCCCC4c4cccnc4)c3n2)cc1 (stereo not drawn),32.5%
O=C(NCCCn1ccnc1)c1cc(Br)ccc1Cl,2.6%
CC(C)(C)Nc1nc(-c2cccc([N+](=O)[O-])c2)nc2ccccc12,i
Cc1nn(C)c(C)c1NC(=O)CSc1nc2ccccc2c(=O)n1CCc1ccccc1,3.9%
CC(C)c1ccc(OCC(=O)Nc2nc(C(C)(C)C)cs2)cc1,3.87µg/mL*
CCOC(=O)N1CCN(C(=O)c2cc3cc(Br)ccc3oc2=O)CC1,i
Cc1cc(C)n(S(=O)(=O)c2cc(C)c(C)cc2C)n1,i
COc1ccc(OCC(=O)Nc2sc3c(c2C#N)CCC3)cc1,i
Cc1ccc(C)c(S(=O)(=O)N2CCC(C)CC2)c1,4.9%
O=[N+]([O-])c1ccc(S(=O)(=O)NCCSC2CCCCC2)cc1,1.8%
CCOC(=O)c1cnc2c(OC)cccc2c1Nc1cccc(O)c1,12.2%
Cc1cc(C)nc(NC(=O)c2cccc(Cl)c2)c1,i
COc1cc(CNCc2cccs2)ccc1OCC(N)=O,i
COC(=O)CSc1nnc(Cc2ccc(OC)cc2)s1,26.4%
